ALR H2O2 inh – inhibitors of human ALR sulfhydryl oxidase, primary screen, biochemical, H2O2 detection, HRP-luminol luminescence, single point; AID 485317, 2010; inhibition, % (no concentration beside the values); 290,000 compounds, 3.8% hits; purified ALR, DTT oxidation; FAD-linked sulfhydryl oxidase ALR (Homo sapiens), P55789;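 active means mean and each replicate at 75% or more; inconclusive means only one of the two met; inactive means neither met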;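 further: stock transfer was 7.5 nL into about 7.5 µL; 0% = neutral wells and 100% = wells with inactivated enzyme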
HNF4A DNA FP – change in binding of human HNF4A to DNA, primary screen, biochemical, fluorescence polarization, FITC-DNA; 1 h; activity change, % at 10 µM; 360,000 compounds, 0.3% hits; AID 1224865, 2016; in the data active means activity change above about 30%, passing the limit was not always enough;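 further: controls were the assay level and a saturating level of protein; the project sought stronger binding though the title names inhibitors; some compounds called inactive have numbers as strong as hits; positive values seem to mean higher polarization but the record does not say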
Target sequence (P41235 whole entry, looked up): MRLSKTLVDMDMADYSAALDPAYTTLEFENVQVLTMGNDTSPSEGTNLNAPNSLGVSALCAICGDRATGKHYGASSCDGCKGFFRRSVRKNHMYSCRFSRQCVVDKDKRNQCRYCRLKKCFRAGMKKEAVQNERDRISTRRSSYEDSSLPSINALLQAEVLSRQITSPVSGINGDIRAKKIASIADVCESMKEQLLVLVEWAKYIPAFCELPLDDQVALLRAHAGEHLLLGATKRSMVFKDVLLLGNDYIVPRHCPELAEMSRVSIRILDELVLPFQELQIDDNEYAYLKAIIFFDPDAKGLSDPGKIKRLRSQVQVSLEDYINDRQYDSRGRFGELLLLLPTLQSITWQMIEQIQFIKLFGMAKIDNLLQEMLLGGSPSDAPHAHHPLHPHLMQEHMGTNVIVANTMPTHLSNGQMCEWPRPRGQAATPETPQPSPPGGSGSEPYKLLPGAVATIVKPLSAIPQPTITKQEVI
E coli growth – E. coli growth inhibition, primary screen, OD600; Escherichia coli growth, 23 h; hits give low values; OD600 absorbance (concentration not given with the values); 330,000 compounds, 0.21% hits; AID 1053175, 2014;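 active means OD600 absorbance below the run mean of sample wells minus 3.6 SD, in any replicate, cut at about 0.56 in these data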;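 further: stock transfer was 300 nL into about 60 µL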
Vif TR-FRET – inhibitors of Vif binding to APOBEC3G peptide, primary screen, biochemical, TR-FRET, GST-Vif 1-94, biotin-A3G peptide, dose response retest (AID 1117319); Virion infectivity factor (Human immunodeficiency virus type 1 group M subtype B (isolate …; TR-FRET GST-Vif / biotin-A3G peptide binding; higher % means a stronger effect; test concentration not given here; strong numbers were not always called active; inhibition, %, or IC50 in µM where a hit was titrated; 260,000 compounds, 0.57% hits;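 active means above the screen mean plus three standard deviations and confirmed in dose response; inconclusive means results disagree or hit not tested in dose response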;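 further: Vif residues 1-94 fused to GST binding biotinylated APOBEC3G peptide 110-148; 0% = full assay without inhibitor and 100% = GST in place of GST-Vif; retest series ran down from 100 µM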
Ecoli rRNA inh – reduced GFP signal of wild-type E. coli, primary screen, bacterial rRNA inhibitor project, GFP/RFP fluorescence, OD600, single point. E. coli WT GFP vs humanized-ribosome RFP mutants, 24 h; hits give low values; DMSO median 0, no signal -100. GFP signal change (wild-type ribosome), % (no concentration beside the values). 350,000 compounds, 1.6% hits. AID 720706, 2013;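 active means significant combined selectivity score with lowered wild-type GFP, culture density cut under 30%, mutant RFP and density less affected; inactive means any of these conditions unmet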; further: one replicate is shown; some compounds called inactive have numbers as strong as hits
MLL AF4-AF9 inh – inhibitors of AF4 peptide binding to AF9, primary screen, biochemical, AlphaScreen, biotin-AF4 peptide, FLAG-AF9, single point; Protein AF-9 (Homo sapiens), P42568; inhibition, % at 10 µM; 350,000 compounds, 0.47% hits; AID 651704, 2012;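 active means every replicate reaching a set inhibition limit, whatever the replicate mean, cut at about 25% in these data; inconclusive means mean inhibition reaches that limit but some replicates miss it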;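 further: 0% = plate neutral control median and 100% = total signal loss; the record names both 10 and 1 µM as test concentration; the first replicate is given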
Target sequence (P42568 whole entry, looked up): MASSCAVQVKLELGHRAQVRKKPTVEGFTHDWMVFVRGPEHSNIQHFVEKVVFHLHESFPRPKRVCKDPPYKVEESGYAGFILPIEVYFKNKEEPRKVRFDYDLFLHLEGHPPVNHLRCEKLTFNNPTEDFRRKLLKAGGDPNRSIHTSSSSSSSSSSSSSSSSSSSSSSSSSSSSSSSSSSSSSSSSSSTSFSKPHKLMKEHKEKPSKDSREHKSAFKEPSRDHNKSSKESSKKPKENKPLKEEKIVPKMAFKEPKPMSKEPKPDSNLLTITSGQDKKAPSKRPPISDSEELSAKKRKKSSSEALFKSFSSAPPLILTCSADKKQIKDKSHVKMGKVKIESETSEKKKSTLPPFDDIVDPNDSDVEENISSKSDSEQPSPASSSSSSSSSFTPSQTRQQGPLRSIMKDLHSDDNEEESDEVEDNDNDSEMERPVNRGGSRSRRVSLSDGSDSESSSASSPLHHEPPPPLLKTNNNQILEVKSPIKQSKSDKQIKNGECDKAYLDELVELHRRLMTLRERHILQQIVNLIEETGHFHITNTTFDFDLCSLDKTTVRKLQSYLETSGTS
FGF22 binding – binders of human FGF22 protein, primary screen, FGF22 synaptogenesis inhibitor project, biophysical, thermal shift, single point; 340,000 compounds, 1.5% hits; recombinant FGF22 thermal shift, SYPRO orange fluorescence; percent of sucrose octasulfate shift, DMSO zero; calls only at 9.99 µM; Fibroblast growth factor 22 (Homo sapiens), Q9HCT0;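 active means melting point raised past a set limit in the mean and every replicate; inconclusive means no clear call; three in four hits are not shown here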
Ecoli rRNA inh OD600 – further read-out of Ecoli rRNA inh, marked with its call; OD600 change, %; measured here: OD600 growth;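 optical density of the mix in the first replicate; 0 = DMSO median and -100 = no signal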
Ecoli rRNA inh RFP – further read-out of Ecoli rRNA inh, marked with its call; RFP signal change, %; measured here: RFP humanized mutant strains;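 first replicate; 0 = DMSO median and -100 = no signal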
Numbers without * were called inactive; i = inactive; ? = inconclusive; . = no result given; + = active, no number; & = joins results of further samples. An excerpt (hit frequency here may not be typical).

SMILES	ALR H2O2 inh	HNF4A DNA FP	E coli growth	Vif TR-FRET	Ecoli rRNA inh	Ecoli rRNA inh OD600	Ecoli rRNA inh RFP	MLL AF4-AF9 inh	FGF22 binding
CCc1cccc2c(=O)c(C(=O)N3CCCCCC3)c[nH]c12	.	-2.1	0.68	-2%	.	.	.	.	.
COc1ccc(-c2oc3ncnc(N)c3c2-c2ccccc2)cc1	-7	4.2	0.72	-2%	.	.	.	.	.
C=CCN1C(=O)C(Cc2cccc(Cl)c2)SC1=Nc1ccc(C(=O)O)cc1 (stereo not drawn)	-6	2.0	0.64	-4%	-19	-28	-3.8	1.3	i
CC(Cl)C(=O)c1c[nH]c2ccccc12 (stereo not drawn)	3	1.8	0.69	-6%	2	7	-3.9	0.5	i
Cc1ccc(OCC(O)CN2CCN(Cc3ccc4c(c3)OCO4)CC2)c(C)c1 (stereo not drawn)	-3	-0.5&1.8	0.65&0.67	-12%&0%	8&-11	-20&-42	44&25	2.7&7.8	i
O=C(CC(F)(F)F)N1C[C@@H]2[C@H](c3ccccc31)[C@H](CO)N2CC1CCOCC1	.	.	.	.	1	7	0.4	-4.9	i
COc1ccccc1CNC(=O)Cn1cnnn1	-8	6.2	0.7	-1%	12	14	9.8	-7.4	i
CC1c2nc3ccccc3n2C(CC(=O)NCCCN2CCOCC2)C(=O)N1Cc1ccccc1 (stereo not drawn)	-9	1.3	0.73	-3%	15	19	3.5	-4.2	i
CC=Cc1ccc2n(c1=O)C[C@@H]1[C@@H](CO)[C@H](C(=O)N[C@H](C)c3ccccc3)[C@H]2N1Cc1ccncc1 (mixture of isomers)	.	.	.	.	3	-1	-0.4	-0.4	i
C[C@H]1CCCCO[C@@H](CN(C)C)[C@@H](C)CN([C@@H](C)CO)C(=O)c2cc(NS(=O)(=O)c3ccc(F)cc3)ccc2O1	.	.	.	.	3	8	-0.6	-4.5	i
CCC(c1nnnn1C(C)(C)CC)N(CCCO)Cc1cc2cccc(C)c2[nH]c1=O (stereo not drawn)	-5	-1.8	0.72	5%	.	.	.	.	.
CNc1nc(C)c(C(C)(C)C)s1	0	3.4	0.68	-6%	6	3	-0.6	-3.5	i
CCN(CC)C1CCN(C(=O)c2cc(COc3ccccc3SC)on2)C1 (stereo not drawn)	-14	1.5	0.69	.	-1	-3	-0.4	0.6	i
CCOc1ccc2nc(SCC(=O)NCC3CCCO3)c(C#N)cc2c1 (stereo not drawn)	1	0.4	0.69	.	5	12	-0.2	1.3	i
COc1cc2c3c(c1OC)C1(C=CC(=O)C=C1)CC3N(C(C)=O)CC2 (stereo not drawn)	-15	-2.0	0.64	25%	2	7	1.8	2.7	i
O=C(Cc1cccnc1)N1CC(=O)N2[C@H](C1)[C@H](c1ccc(C#CC3CCCCC3)cc1)[C@@H]2CO	.	.	.	.	0	-9	-3.5	6.4	i
CC(C)(C)C(=O)Oc1cc(N)n(S(=O)(=O)c2ccc(F)cc2)n1	12	-4.2	0.68	18%	.	.	.	.	.
COC(=O)COc1ccc(S(=O)(=O)N2CCN(c3ccccc3F)CC2)cc1C	-1	-0.6	0.65	2%	.	.	.	.	.
C[C@@H]1CN([C@@H](C)CO)C(=O)c2cc(C#CC3(O)CCCC3)cnc2O[C@@H]1CN(C)C(=O)Cc1ccncc1	.	.	.	.	-2	-8	-4.3	-2.1	i
CCCCNC(=O)C1(C)CCCCN1C(=O)c1cc(C)n(C(C)(C)C)n1 (stereo not drawn)	.	-3.6	.	.	8	9	-4.1	1.7	i
COc1cc2c(cc1OC)C(c1ccc(O)cc1)NCC2 (stereo not drawn)	-2	0.5	0.61	3%	4	14	-2.4	-4.4	i
O=C(NCCCCc1ccccc1)c1cccc(NC(=O)C2CCC2)c1	.	-5.6	.	.	-31	-50	-12	-2.2	i
Cc1ccc(NC(=O)C2CCCCC2C(=O)O)cc1C (stereo not drawn)	-13	-2.1	0.69	-2%	.	.	.	-1.3	.
S=C(NCc1cccc(Cl)c1)NCc1ccco1	2	5.2	0.6	.	6	7	2.4	3.3	i
O=c1oc2ccccc2n1Cc1ccccc1Cl	-14	-0.4	0.72	4%	-6	-23	-6.1	0.3	i
SMILES	ALR H2O2 inh	HNF4A DNA FP	E coli growth	Vif TR-FRET	Ecoli rRNA inh	Ecoli rRNA inh OD600	Ecoli rRNA inh RFP	MLL AF4-AF9 inh	FGF22 binding
Cc1ccc(CN2CCC(Oc3cccc(C(=O)NCc4cccnc4)c3)CC2)o1	5	1.9	0.69	4%	8	-1	-0.2	-0.6	i
CN1CCN(C(=O)C2=C[C@@H](C3CCCCC3)C[C@@H](OCc3ccc(CO)cc3)O2)CC1	0	3.3	.	.	-1	-10	16	1.8&3.4	i
COc1ccc(-c2csc3ncnc(N4CCN(c5ccccc5Cl)CC4)c23)cc1	-13	0.8	0.75	.	10	9	2.0	-1.3	i
CC(C)NC(=O)Nc1ccc2c(c1)C(=O)N([C@H](C)CO)C[C@@H](C)[C@@H](CN(C)C(=O)NC(C)C)OCCCC[C@@H](C)O2	.	.	.	.	3	5	-0.6	-1.4	i
CCOC(=O)NC(=O)CSc1ccc(S(=O)(=O)N2CCCCC2)cn1	-13	0.7	0.68	.	5	7	-3.2	0.9	i
CCN1CCN(C(C)C(=O)Nc2c(C)n(C)n(-c3ccccc3)c2=O)CC1 (stereo not drawn)	-4	-0.4	0.73	0%	.	.	.	.	.
CCCn1c(NC(=O)c2ccco2)nc2ccccc21	-4	-3.5	0.68	34%	.	.	.	.	.
Cc1ccc(-c2cc(C(=O)Nc3ccc(S(=O)(=O)Nc4onc(C)c4C)cc3)c3ccccc3n2)cc1	98*	-3.7	0.7	2%	12	22	6.7	5.5	+
CCC(C)NC(=O)CN1c2cccc3cccc(c23)S1(=O)=O (stereo not drawn)	.	0.3	0.65	-5%	-3	-6	2.7	-1.9	i
CC1=NN(c2ccccc2)C(=O)/C1=C\C=C\c1ccccc1	12	0.4	.	.	5	11	1.4	4.9	i
Cc1ccc(S(=O)(=O)Nc2ccc3c(c2)C(=O)N([C@H](C)CO)C[C@@H](C)[C@@H](CN(C)S(=O)(=O)c2ccc(Cl)cc2)O3)cc1	.	.	.	.	0	-10	-0.3	-0.3	i
COC(=O)c1ccccc1NC(=O)NN1CCN(C)CC1	0	3.0	0.71	-6%	17	11	-0.2	-1.6	i
COc1ccc(S(=O)(=O)Nc2ccc3c(c2)C(=O)N([C@H](C)CO)C[C@@H](C)[C@@H](CN(C)Cc2ccc(C(F)(F)F)cc2)O3)cc1	.	.	.	.	-5	14	-2.6	4.0	i
CCCCCCCCCc1conc1C(=O)/C=C/c1ccco1	.	-1.8	.	.	.	.	.	-1.9	i
O=C(Nc1nc2ccccc2s1)c1ccc(N2CCCCC2)c([N+](=O)[O-])c1	.	-0.5	0.73	.	-10	-3	1.9	11	i
Cc1ccc2oc(=O)n(CC(=O)OC(C)C)c2c1	-3	-0.1	0.66	-8%	.	.	.	.	.
COCCNC(=S)N/N=C(\C)c1ccccc1F	33	1.3	.	.	17	10	3.9	1.3	i
CCCCn1c(=O)c2c(O)cc(=O)oc2c2ccccc21	-1	12	0.68	14%	.	.	.	.	.
CCc1cccc(NS(=O)(=O)c2ccc3c(c2)CCC(=O)N3)c1	-5	-3.8	0.69	8%	-21	-32	-7.8	-1.2	i
O=C(NCc1cccc(C(F)(F)F)c1)c1ccc2c(c1)OCO2	.	-0.4	0.69	.	-27	-27	-5.6	-0.7	i
O=C(NCc1ccccc1)NC1(C(=O)N2CCN(c3ccccc3)CC2)CCCCC1	26	2.0	0.75	?	.	.	.	.	.
Cc1cc2cc(CNC(=O)C3CC3)ccc2n1C	-9	-5.8	0.66	?	.	.	.	.	.
CC(C)C(OC(=O)c1cccs1)C(=O)NCc1cccs1 (stereo not drawn)	-2	2.6	0.64	-2%	.	.	.	.	.
CCN(CC)S(=O)(=O)c1cccc(NC2=NCC(C)S2)c1 (stereo not drawn)	-2	0.2	0.7	2%	-5	-4	13	-5.3	i
C[C@@H]1CN([C@@H](C)CO)C(=O)c2cc(NC(=O)Nc3ccc(C(F)(F)F)cc3)ccc2O[C@@H](C)CCCCO[C@H]1CN(C)Cc1ccccc1	.	.	.	.	3	6	-4.9	-0.2	i
SMILES	ALR H2O2 inh	HNF4A DNA FP	E coli growth	Vif TR-FRET	Ecoli rRNA inh	Ecoli rRNA inh OD600	Ecoli rRNA inh RFP	MLL AF4-AF9 inh	FGF22 binding
O=C(CSc1nnc(-c2cccnc2)n1Cc1ccco1)c1ccc(Br)cc1	96*	-1.8	0.72	>100µM*	.	.	.	.	.
O=C(Cc1coc2cc3c(cc12)CCC3)OCC(=O)N1CCCC1=O	5	1.3	0.7	.	-29	-32	-2.0	7.5	.
COc1ccc(-n2nc(C(=O)N3CCN(c4ccc(F)cc4)CC3)c3ccccc3c2=O)c(OC)c1	.	-0.2	0.69	?	.	.	.	.	.
O=C(Nc1nc2ccc(F)cc2s1)C1CC(=O)N(c2ccc3c(c2)OCCO3)C1 (stereo not drawn)	3	0.6	0.65	.	.	.	.	2.1	i
CCN(CC)CCNC(=O)Cc1nn(CC)c(=O)c2ccccc12	-2	1.3	0.69	-6%	11	6	-6.1	-105	i
CC(C)NC(=O)N(C)C[C@H]1Oc2ncc(C#Cc3ccncc3)cc2C(=O)N([C@H](C)CO)C[C@H]1C	.	.	.	.	10	12	-1.5	-4.8	i
COC(=O)C[C@@H]1C[C@@H]2c3cc(NC(=O)Cc4ccncc4)ccc3O[C@@H]2[C@@H](CO)O1	.	-0.9	.	-8%	-3&0	9&0	1.6&-0.3	1.8	i
COc1ccc(NC(=O)N(C)C[C@H]2Oc3ncc(-c4cccnc4)cc3C(=O)N([C@H](C)CO)C[C@@H]2C)cc1	.	.	.	.	9	12	0.3	-2.5	i
CCN(CC)S(=O)(=O)c1ccc(C(=O)NCC2(N3CCOCC3)CCCCC2)cc1	-14	-3.7	0.71	1%	-2	7	-0.1	-3.8	i
COc1cccc(/C=N/NC(=O)C(=O)N/N=C/c2cccc(OC)c2O)c1O	.	-6.9	.	28%	3	6	-1.3	-1.8	i
C[C@H](CO)N1C[C@H](C)[C@H](CN(C)S(=O)(=O)c2cn(C)cn2)OCCCC[C@H](C)Oc2ccc(NC(=O)C3CCCCC3)cc2C1=O	.	.	.	.	-1	2	0.1	-5.9	i
COc1cccc(OC)c1C(=O)NCCc1ccccc1	-2	1.4	0.65	.	1	8	0.9	.	i

Record cards, as listed above:
COc1ccccc1CNC(=O)Cn1cnnn1 is listed with ALR H2O2 inh = -8; HNF4A DNA FP = 6.2; E coli growth = 0.7; Vif TR-FRET = -1%; Ecoli rRNA inh = 12; Ecoli rRNA inh OD600 = 14; Ecoli rRNA inh RFP = 9.8; MLL AF4-AF9 inh = -7.4; FGF22 binding = i
CCN1CCN(C(C)C(=O)Nc2c(C)n(C)n(-c3ccccc3)c2=O)CC1 (stereo not drawn) is listed with ALR H2O2 inh = -4; HNF4A DNA FP = -0.4; E coli growth = 0.73; Vif TR-FRET = 0%; Ecoli rRNA inh = .; Ecoli rRNA inh OD600 = .; Ecoli rRNA inh RFP = .; MLL AF4-AF9 inh = .; FGF22 binding = .

Source: PubChem BioAssay
